GLA inh pH 4.5 – inhibitors of human alpha-galactosidase A at pH 4.5 | AID 1467 | activity change, negative = inhibition, % at 105 µM | purified enzyme, 4-MU-alpha-Gal fluorescence, pH 4.5 | P06280 | 230,000 tested, under 10 active; inconclusive = small, poorly fitted or top-dose-only inhibition, or a rising curve; inactive = flat fitted curve, though single readings scatter; no compound was filed as active;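 also: 0% = full activity with enzyme and -100% = basal without enzyme; dose as in the result columns while the protocol names 77 µM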
Target sequence (P06280 whole entry, looked up): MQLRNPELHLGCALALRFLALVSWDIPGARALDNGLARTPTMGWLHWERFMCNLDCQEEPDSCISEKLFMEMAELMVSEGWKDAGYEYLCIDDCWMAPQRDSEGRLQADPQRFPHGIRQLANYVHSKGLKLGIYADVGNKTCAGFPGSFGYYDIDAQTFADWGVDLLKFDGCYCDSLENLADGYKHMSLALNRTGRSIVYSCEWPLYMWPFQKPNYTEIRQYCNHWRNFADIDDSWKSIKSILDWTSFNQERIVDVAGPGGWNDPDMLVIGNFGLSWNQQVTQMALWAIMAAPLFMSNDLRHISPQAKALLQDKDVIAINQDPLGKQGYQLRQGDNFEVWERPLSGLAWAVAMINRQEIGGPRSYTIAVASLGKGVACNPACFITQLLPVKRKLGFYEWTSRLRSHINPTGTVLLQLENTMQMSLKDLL
Rango complex inh – inhibitors of Rango-importin beta complex formation; Rango CFP/YFP FRET sensor + importin beta, 45 min; Potency, µM (highest dose often 92.2 µM), for the others: top-dose inhibition of complex formation; 340,000 tested, 0.031% active; AID 540263; active = rising FRET ratio curve, often small or poorly fitted; inconclusive = mostly compound fluorescence or quenching in the first reads; inactive = flat curves in all reads;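 also: potency is read from the fitted curve at half-maximal effect; 0% = DMSO wells and 100% = buffer wells lacking importin beta; nearly all actives have a fitted effect of over 15% in size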
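FRET biosensor (snurportin 1 IBB flanked by EYFP and cerulean), 50 nM, with compound 5 min, then 0.125 microM importin beta in PBS, 1 mM DTT, 0.02% Tween-20, 0.1% BSA. CFP/YFP ratio read after 45 min at room temperature; pre-read flags interference.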
miR-21 FLuc – raises the signal of a miR-21 reporter; 340,000 tested, under 10 active; Potency, µM (doses to about 38.3 µM), without a hit: at the top dose reporter change, positive = more light; HeLa miR-21 FLuc reporter, luciferase, 48 h; active = well fitted rising curve with a large enough effect; inconclusive = small, poorly fitted or top-dose-only effect; inactive = no such curve, though single readings can be large or run the other way;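 also: % of control where 0% means no effect; miR-21 action dims this reporter so a rising signal means less miR-21 action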
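Using DMEM plus 10% FBS, HeLa miR-21-FLuc cells are incubated with test compounds (final up to about 40uM) for 48 hours; firefly luciferase signal is then imaged following reagent-mediated lysis.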
Rango dissoc inh – inhibitors of RanGTP-induced Rango-importin beta complex dissociation; O95149+P62826; Biochemical FRET Rango-importin beta, RanGTP-induced dissociation; Potency, µM (doses to about 46.1 µM), without a hit: top-dose activity change, negative = inhibition; 340,000 tested, 0.071% active; AID 540253; active means falling FRET ratio curve, often poorly fitted, with flat reads before Ran was added; inconclusive means other falling curves, or compound fluorescence or quenching; inactive means flat or rising ratio curve;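 also: potency is read from the fitted curve at half-maximal effect; % of control where 0% means no effect; nearly all actives have a fitted effect of over 45% in size; -100% = wells without RanGTP and RCC1; the record marks most hits as doubtful in a second field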
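Recombinant Rango FRET biosensor (EYFP–snurportin 1 IBB–cerulean CFP10) at 0.1 uM premixed with 0.25 uM importin beta in PBS, 1 mM DTT, 0.02% Tween-20, 0.1% BSA. Compound added 5 min; RanGTP-RCC1 (0.6 uM Ran, 2 mM GTP, 0.2 uM RCC1) then triggers release, read at 45 min.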
The depositor's hits bear a star.

Results for O=C(c1ccc(F)cc1)N1CCC(C(=O)N2CCN(S(=O)(=O)c3cccc(F)c3)CC2)CC1 ?
Rango complex inh: -1.2%; Rango dissoc inh: 12%

How did Cn1c(=O)n(CC(N)=O)c2ccccc21 do in these assays?
GLA inh pH 4.5: -8; Rango complex inh: 1.0%; miR-21 FLuc: 0%; Rango dissoc inh: 1%

How did CCOc1ccc2nc(NCCCNC(=O)c3cc(OC)c(OC)c(OC)c3)c(C#N)cc2c1 do in these assays?
GLA inh pH 4.5: 0; Rango complex inh: inconclusive; miR-21 FLuc: -5%; Rango dissoc inh: inconclusive

What do the screens show for `COc1ccc(N(C(=O)c2cccc([N+](=O)[O-])c2)S(=O)(=O)c2ccc3c(c2)n(C)c(=O)n3C)cc1`?
GLA inh pH 4.5: -2; Rango complex inh: -0.8%; miR-21 FLuc: -2%; Rango dissoc inh: 10%

How did C=CCC[C@H](Cc1ccc(F)cc1)C(=O)OC[C@@H](Cc1c[nH]c2ccccc12)NC(=O)[C@@H](CC=C)CC(=O)N[C@@H](CO)Cc1ccccc1 do in these assays?
Rango complex inh: 0.9%; Rango dissoc inh: -5%

Results for Cc1ccc(Cl)c(OCCCN(C)Cc2ccccc2)c1 ?
GLA inh pH 4.5: -9; Rango complex inh: -5.1%; miR-21 FLuc: 4%; Rango dissoc inh: -13%

How did CC(=O)C[C@@H](O)CC(=O)[C@H]1OC(=O)[C@H](C)C/C=C\Cc2ccccc21 do in these assays?
Rango complex inh: 0.0%; Rango dissoc inh: 13%

How did Cc1ccc(OC(C)C(=O)N2CCc3ccccc32)cc1 (stereo not given) do in these assays?
GLA inh pH 4.5: -9; Rango complex inh: 1.2%; miR-21 FLuc: -11%; Rango dissoc inh: 4%

How did CCOc1ccc(S(=O)(=O)N(CC(=O)NCc2cccnc2)c2ccc(C)cc2)cc1 do in these assays?
Rango complex inh: -0.4%; miR-21 FLuc: -1%; Rango dissoc inh: 9%

What do the screens show for `Cc1ccccc1Cn1ccc(NC(=O)c2nn3cccnc3c2Cl)n1`?
GLA inh pH 4.5: -5; Rango complex inh: 3.7%; miR-21 FLuc: -45%; Rango dissoc inh: 46%

What do the screens show for `O=C(O)[C@@H](c1ccccc1)N1Cc2ccccc2C1=O`?
GLA inh pH 4.5: 3; Rango complex inh: 0.3%; miR-21 FLuc: 1%; Rango dissoc inh: 1%

How did C[C@]1(CC/C(=C/CO)CO)[C@H](CO)CC[C@@]23COC(=O)C2=CCC[C@@H]31 do in these assays?
Rango complex inh: -0.2%; Rango dissoc inh: -4%

How did Cc1cccc(-c2c(O)cc(=O)[nH]c2Cl)c1 do in these assays?
GLA inh pH 4.5: 10; Rango complex inh: -2.7%; miR-21 FLuc: -3%; Rango dissoc inh: -9%

How did COc1cccc(N(CC(=O)Nc2ccc3c(c2)OCO3)S(=O)(=O)c2ccccc2)c1 do in these assays?
GLA inh pH 4.5: -10; Rango complex inh: 2.9%; miR-21 FLuc: -5%; Rango dissoc inh: -4%

What do the screens show for `COc1ccc(CC(=O)Nc2nnc(C)s2)cc1`?
GLA inh pH 4.5: -6; Rango complex inh: 1.2%; miR-21 FLuc: 0%; Rango dissoc inh: -17%

Results for O=C(Nc1ccccc1)Nc1nnc(/C=C/c2ccccc2Cl)s1 ?
GLA inh pH 4.5: 9; Rango complex inh: -2.7%; miR-21 FLuc: -13%; Rango dissoc inh: inconclusive

Results for CCN(/N=C/c1cccs1)c1cc(=O)n(C)c(=O)[nH]1 ?
GLA inh pH 4.5: -5; Rango complex inh: 3.9%; miR-21 FLuc: -2%; Rango dissoc inh: 8%

How did O=C(COC(=O)C12CC3CC(CC(C3)C1)C2)Nc1ncc(Cl)cc1Cl do in these assays?
GLA inh pH 4.5: -10; Rango complex inh: 1.0%; miR-21 FLuc: 0%; Rango dissoc inh: -8%

Results for Cc1cccc(OC(=O)c2cn(C)nc2C(F)(F)F)c1C ?
GLA inh pH 4.5: -6; Rango complex inh: -1.7%; miR-21 FLuc: -4%; Rango dissoc inh: 2%

What do the screens show for `C[C@H]1CN([C@@H](C)CO)C(=O)Cc2cc(NC(=O)CCC(F)(F)F)ccc2O[C@H]1CN(C)Cc1ccc(C(F)(F)F)cc1`?
Rango complex inh: 4.0%; Rango dissoc inh: 10%

Results for S=c1sc2c(N3CCOCC3)ncnc2n1-c1ccccc1 ?
GLA inh pH 4.5: 10; Rango complex inh: -4.9%; miR-21 FLuc: -5%; Rango dissoc inh: 29%

Results for Cc1nc(-c2c(C(=O)NNC(=O)Nc3c(C)cccc3C)noc2C)cs1 ?
GLA inh pH 4.5: 0; Rango complex inh: 2.2%; miR-21 FLuc: -1%; Rango dissoc inh: -1%

How did O=C(NCc1ccccc1)c1ccco1 do in these assays?
GLA inh pH 4.5: -8; Rango complex inh: 1.9%; miR-21 FLuc: 3%; Rango dissoc inh: 2%

How did O=c1cc(CNc2ccc(Br)cc2)nc2sccn12 do in these assays?
GLA inh pH 4.5: 6; Rango complex inh: 4.6%; miR-21 FLuc: -62%; Rango dissoc inh: 0%

What do the screens show for `COC(=O)Cn1c2ccc(OC)cc2c2nc3ccccc3nc21`?
GLA inh pH 4.5: 3; Rango complex inh: 2.9%; miR-21 FLuc: -1%; Rango dissoc inh: 28%

Results for COc1ccc(CNC(=O)[C@@H](NC(=O)C2CCN(C(=O)[C@@H](N)CCSC)CC2)C(C)C)cc1 ?
Rango complex inh: 0.5%; miR-21 FLuc: 0%; Rango dissoc inh: -7%

How did CC(C)N(C(=O)COC(=O)CNS(=O)(=O)c1ccccc1F)c1ccccc1 do in these assays?
GLA inh pH 4.5: -10; Rango complex inh: 1.0%; miR-21 FLuc: -1%; Rango dissoc inh: 6%

Results for O=C(O)c1ccc(C2CCCCC2)cn1 ?
GLA inh pH 4.5: 3; Rango complex inh: -0.1%; miR-21 FLuc: 0%; Rango dissoc inh: 20%

Results for O=C(c1ccc(OC2CCN(C(=O)c3cccnc3)CC2)cc1)N1CCCCCC1 ?
GLA inh pH 4.5: 0; Rango complex inh: -5.7%; miR-21 FLuc: 4%; Rango dissoc inh: -1%

How did CCNS(=O)(=O)c1ccc(CCC(=O)N2CCC(C)CC2)cc1 do in these assays?
Rango complex inh: inconclusive; miR-21 FLuc: -4%; Rango dissoc inh: inconclusive

What do the screens show for `O=C1COc2ccc(C(=O)COC(=O)/C=C/c3cccc(F)c3)cc2N1`?
GLA inh pH 4.5: -6; Rango complex inh: -4.4%; miR-21 FLuc: 3%; Rango dissoc inh: 36%

Results for O=C(c1ccc([N+](=O)[O-])cc1)N(Cc1ccccc1)Cc1ccccc1 ?
Rango complex inh: -0.7%; Rango dissoc inh: 6%

What do the screens show for `O=c1c2cc(NC(=S)N3CCCC3)ccc2nc2n1CCCCC2`?
GLA inh pH 4.5: 3; Rango complex inh: -0.2%; miR-21 FLuc: -7%; Rango dissoc inh: 13%

Results for COc1ccc(CCNc2nc(-c3ccccn3)cs2)cc1OC ?
GLA inh pH 4.5: 1; Rango complex inh: inconclusive; miR-21 FLuc: 3%; Rango dissoc inh: -2%

Results for OCCNCc1cc(Br)ccc1OCc1ccccc1 ?
GLA inh pH 4.5: -11; Rango complex inh: -0.5%; miR-21 FLuc: 2%; Rango dissoc inh: 6%

Results for COC(=O)C(NC(=O)C(CC(C)C)NC(=O)C1CCC(C)CC1)C(C)C (stereo not given) ?
GLA inh pH 4.5: 6; Rango complex inh: -1.2%; miR-21 FLuc: -6%; Rango dissoc inh: 15%

How did O=c1c(C/C=C/c2ccccc2)c(O)ccn1CCc1c[nH]c2ccccc12 do in these assays?
GLA inh pH 4.5: -3; Rango complex inh: -3.7%; miR-21 FLuc: -2%; Rango dissoc inh: -3%

What do the screens show for `CCOc1ccc(CCNC(=O)CCC(=O)Nc2ccc3nc(N4CCN(C)CC4)cc(C)c3c2)cc1OCC`?
GLA inh pH 4.5: -8; Rango complex inh: 5.0%; miR-21 FLuc: 1%; Rango dissoc inh: 1%

How did O=C(Nc1ccc(NC(=O)c2cccs2)cc1Cl)c1ccco1 do in these assays?
GLA inh pH 4.5: 9; Rango complex inh: 1.8%; miR-21 FLuc: -42%; Rango dissoc inh: -11%

What do the screens show for `CCN1C/C(=C/c2sccc2C)c2nc3ccccc3c(C(=O)O)c2C1`?
GLA inh pH 4.5: -2; Rango complex inh: inconclusive; miR-21 FLuc: 2%; Rango dissoc inh: -26%

What do the screens show for `O=C(CC1C[C@H](C(=O)N2CCOCC2)[C@@]2(CCC3CCCC3)c3[nH]c4ccccc4c3CCN2C1=O)NCCN1CCOCC1` (stereo not given in full)?
Rango complex inh: -3.8%; Rango dissoc inh: -2%

What do the screens show for `C=CCOC(=O)C1=C(C)NC(=O)NC1c1cn(-c2ccccc2)nc1-c1cccs1` (stereo not given)?
GLA inh pH 4.5: -5; Rango complex inh: -0.8%; miR-21 FLuc: 0%; Rango dissoc inh: 5%

How did O=C(Nc1ccccc1Br)c1ccc(OC(=S)N2CCOCC2)cc1 do in these assays?
GLA inh pH 4.5: 2; Rango complex inh: -1.1%; miR-21 FLuc: 6%; Rango dissoc inh: -6%

How did O=C(Nc1ccc(Oc2ccccc2)nc1)C1CCN(Cc2cccc(F)c2)CC1 do in these assays?
Rango complex inh: 1.1%; miR-21 FLuc: 15%; Rango dissoc inh: 0%

Results for CC(C)(C)OC(=O)N(CCc1ccccc1)Cc1ccccc1OCc1cccc(NC(=O)/C=C/c2ccccc2)c1 ?
Rango complex inh: -0.6%; Rango dissoc inh: -1%

Already shown: an excerpt of the list.
What do the screens show for `O=C1COc2ccc(C(=O)COC(=O)/C=C/c3cccc(F)c3)cc2N1`?
GLA inh pH 4.5: -6; Rango complex inh: -4.4%; miR-21 FLuc: 3%; Rango dissoc inh: 36%

Results for O=C(c1ccc([N+](=O)[O-])cc1)N(Cc1ccccc1)Cc1ccccc1 ?
Rango complex inh: -0.7%; Rango dissoc inh: 6%

What do the screens show for `O=c1c2cc(NC(=S)N3CCCC3)ccc2nc2n1CCCCC2`?
GLA inh pH 4.5: 3; Rango complex inh: -0.2%; miR-21 FLuc: -7%; Rango dissoc inh: 13%

Results for COc1ccc(CCNc2nc(-c3ccccn3)cs2)cc1OC ?
GLA inh pH 4.5: 1; Rango complex inh: inconclusive; miR-21 FLuc: 3%; Rango dissoc inh: -2%

More entries:
Results for O=C(Nc1ccc2c(c1)OCO2)C1CCN(S(=O)(=O)c2ccc3c(c2)OCCO3)CC1 ?
GLA inh pH 4.5: -1; Rango complex inh: 0.3%; miR-21 FLuc: -6%; Rango dissoc inh: -3%

What do the screens show for `CCN1CCCC1CNC(=O)C1CCN(Cc2nc(-c3cccc(Br)c3)oc2C)CC1` (stereo not given)?
GLA inh pH 4.5: -3; Rango complex inh: 4.9%; miR-21 FLuc: 6%; Rango dissoc inh: -5%

Results for Cc1ccc(/C(=N/Nc2nc3ccccc3s2)C2=C(O)c3ccccc3C2=O)cc1 ?
GLA inh pH 4.5: -15; Rango complex inh: -0.7%; miR-21 FLuc: -3%; Rango dissoc inh: 15%

What do the screens show for `CN(C)CCNC(=O)C12CC3(C)CC(C)(CC(C)(C3)C1)C2`?
GLA inh pH 4.5: -6; Rango complex inh: 5.0%; miR-21 FLuc: -6%; Rango dissoc inh: 14%

Results for CCOC(=O)C1=NN(c2ccc(Cl)cc2)/C(=C/C2=NCCc3cc(OC)c(OC)cc32)S1 ?
GLA inh pH 4.5: 7; Rango complex inh: 1.5%; miR-21 FLuc: -6%; Rango dissoc inh: 1%

How did CCCCOC(=O)C1=C(C)Nc2ncnn2C1c1cc(OC)ccc1OC (stereo not given) do in these assays?
GLA inh pH 4.5: 7; Rango complex inh: -1.3%; miR-21 FLuc: -11%; Rango dissoc inh: 3%

How did O=C(Nc1nncs1)c1cc(S(=O)(=O)N2CCOCC2)ccc1Cl do in these assays?
Rango complex inh: 0.2%; miR-21 FLuc: -1%; Rango dissoc inh: 1%

How did CN=c1scc(C)n1/N=C/c1ccc(O)cc1O do in these assays?
GLA inh pH 4.5: -1; Rango complex inh: -7.5%; miR-21 FLuc: 20%; Rango dissoc inh: 13%

Screens: PubChem, National Center for Advancing Translational Sciences (NCATS)

A portion of the library; rates above refer to the full screens.
